# Screens deposited in PubChem BioAssay by National Center for Advancing Translational Sciences (NCATS).
# 2A StopGo = High Throughput Screening for Foot and Mouth Disease Virus Antivirals. human cells with a luciferase reporter of 2A StopGo recoding; control for the full effect not named in the record. Potency, µM (series often up to 57.9 µM), for inactives: at the top dose signal change, negative = less light. 1.2% of 410,000 active. AID 1159524, 2015; active = well fitted falling curve with a large enough effect; inconclusive = small, poorly fitted or top-dose-only effect; inactive = no such curve, though single readings can be large or run the other way; tested in HEK293T cells; also: % is scaled to controls: 0 for no effect and ±100 for the full control effect; nearly all actives have a fitted effect of over 45% in size; luciferase light after 4 h
# SARS PLpro yeast = qHTS of Yeast-based Assay for SARS-CoV PLP | Potency, µM (top dose mostly 32.9 µM), inactives show top-dose activity, positive = growth rescue | S. cerevisiae expressing SARS-CoV PLpro, growth rescue; control for the full effect not named in the record | 0.19% of 330,000 active; also: 0% is about no effect; nearly all actives have a fitted effect of over 55% in size; growth read by luminescence after 48 h
# Cruzain inh Det = qHTS Assay for Promiscuous and Specific Inhibitors of Cruzain (with detergent). purified cruzain, Z-FR-AMC fluorescence, 0.01% Triton. Potency, µM, for the others: max response, negative = inhibition, hits mostly inhibitors. 0.43% of 200,000 active. AID 1478, 2009; active = well fitted curve in the direction sought with a large enough effect; inconclusive = small, poorly fitted or top-dose-only effect, or another doubt; inactive = no such curve, though single readings can be large; an effect the other way counts as inactive or inconclusive;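 also: plate controls were neutral wells for no effect and buffer without enzyme for full effect; nearly all actives have a fitted effect of over 40% in size; top concentration of the series not given in the record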
# Target sequence (P25779 123-467 limits assumed): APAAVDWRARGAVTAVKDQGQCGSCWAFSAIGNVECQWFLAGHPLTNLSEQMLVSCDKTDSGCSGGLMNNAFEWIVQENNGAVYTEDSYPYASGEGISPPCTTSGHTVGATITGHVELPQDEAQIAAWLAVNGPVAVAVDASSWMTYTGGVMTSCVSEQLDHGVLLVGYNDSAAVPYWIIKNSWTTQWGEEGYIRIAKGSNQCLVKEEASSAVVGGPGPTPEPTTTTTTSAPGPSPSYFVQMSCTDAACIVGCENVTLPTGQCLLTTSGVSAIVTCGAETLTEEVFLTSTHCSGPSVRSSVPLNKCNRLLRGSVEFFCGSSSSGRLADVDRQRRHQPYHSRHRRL
#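 Purified cruzain (1.5 nM final) was preincubated with compounds for 15 min at room temperature in 100 mM sodium acetate pH 5.5, 5 mM DTT, 0.01% Triton X-100. Reaction started with 2 uM Z-FR-AMC; AMC fluorescence change over 60 s gave activity.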
# NS1 inh = qHTS Assay for Inhibitors of Influenza NS1 Protein Function. AID 2326, 2010. 0.4% of 270,000 active. Potency, µM (series often up to 46.1 µM), without a hit: at the highest dose activity, positive = more growth. S. cerevisiae slowed by influenza A NS1, growth recovery by OD600; also: actives are rising curves; nearly all actives have a fitted effect of over 50% in size
#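 Growth recovery, yeast-based: influenza A NS1 expressed in S. cerevisiae causes slow growth, and suppressors are detected by OD600. The parent strain without NS1 is used as positive control.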
# LASV entry inh = qHTS for Inhibitors of binding or entry into cells for Lassa Virus. Lassa virus pseudotype entry inhibition, cell reporter; control for the full effect not named in the record. Potency, µM (doses to about 37.9 µM), inactives show top-dose activity change, negative = inhibition, most hits filed as inhibitors. 1.2% of 300,000 active. AID 540256, 2011; active means well fitted inhibition curve with a large enough effect; inconclusive means small, poorly fitted or top-dose-only effect, or effect the other way; inactive means flat fitted curve, though single readings scatter; tested in HEK293 cells; also: % is scaled to controls: 0 for no effect and ±100 for the full control effect; nearly all actives have a fitted effect of over 50% in size; luciferase read-out
# Cruzain noTriton = qHTS Assay for Promiscuous and Specific Inhibitors of Cruzain (without detergent); purified cruzain, Z-FR-AMC fluorescence, no detergent; AID 1476, 2009; Potency, µM, for the others: max response, negative = inhibition, hits mostly inhibitors; 2.3% of 200,000 active; active = well fitted curve in the direction sought with a large enough effect; inconclusive = small, poorly fitted or top-dose-only effect, or another doubt; inactive = no such curve, though single readings can be large; an effect the other way counts as inactive or inconclusive;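 also: plate controls were enzyme without inhibitor for no effect and buffer without enzyme for full effect; nearly all actives have a fitted effect of over 40% in size; top concentration of the series not given in the record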
#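 Detergent-free condition (0.00005% Triton X-100) in acetate buffer pH 5.5 with DTT. 1.5 nM enzyme and compound were pre-mixed 15 min, then 2 uM Z-FR-AMC substrate added; reaction progress from fluorescence change between first and third reads (60 s).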
# Marburg entry inh = qHTS for inhibitors of binding or entry into cells for Marburg Virus. Marburg virus pseudotyped entry inhibition, cell reporter; control for the full effect not named in the record; about a third of the inactives were read at about 46 µM. Potency, µM (highest dose often 37.8 µM), inactives show at the highest dose activity change, negative = inhibition, most hits filed as inhibitors. 1.8% of 300,000 active. AID 540276, 2011; active = well fitted inhibition curve with a large enough effect; inconclusive = small, poorly fitted or top-dose-only effect, or effect the other way; inactive = flat fitted curve, though single readings scatter; tested in HEK293 cells; about a fifth of its hits are not listed in these tables; also: % is scaled to controls: 0 for no effect and ±100 for the full control effect; luciferase read-out
# RE007 growth inh = qHTS Assay for Inhibitors of the HIV-1 protein Vpr; S. pombe RE007 Vpr strain, BacTiter-Glo ATP luminescence, 24 h; control for the full effect not named in the record; 0.21% of 360,000 active; AID 651644, 2012; Potency, µM (series often up to 92.2 µM), for the others: at the highest dose activity change, negative = less growth; active = well fitted falling curve with a large enough effect; inconclusive = small, poorly fitted or top-dose-only effect; inactive = no such curve, though single readings can be large or run the other way;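 also: % is scaled to controls: 0 for no effect and ±100 for the full control effect; nearly all actives have a fitted effect of over 50% in size; the assay follows cell death caused by Vpr and the record does not say whether a fall means rescue or toxicity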
#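 Fission yeast RE007 carrying one integrated HIV-1 vpr copy, seeded at OD 0.01 in PMG+AL medium with 23 nL pinned compound. Grown 24 h at 30 degrees; viability read by BacTiter-Glo luminescence after 5 min.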
# Numbers without * were called inactive; ? = inconclusive; · = not tested or not shown; & = joins results of further samples; [ ] = dose if it differs, or a comment. Unless noted, calls follow the shape of the dose curve; as a rule, active means well fitted rising curve with a large enough effect; inconclusive means small, poorly fitted or top-dose-only effect; inactive means no such curve, though single readings can be large or run the other way. Potency is read from the fitted curve at half-maximal effect.
compound	NS1 inh	LASV entry inh	Marburg entry inh	Cruzain noTriton	Cruzain inh Det	SARS PLpro yeast	2A StopGo	RE007 growth inh
CCOc1ccc(CN(C)CCc2ccccn2)cc1	·	-1%[46.1 µM]	-11%[46.1 µM]	·	·	0%	-18%	-19%
CCCc1ccc(OCc2ccc(C(=O)NN)o2)c(OC)c1	5%	-5%[46.1 µM]	?	·	·	-4%	-13%	-9%
O=C(Nc1cccc(S(=O)(=O)NC2=NCCC2)c1)C1CCC1	7%	3%	0%[46.1 µM]	·	·	0%	31%[activator]	5%
COc1ccc(S(=O)(=O)Cc2ccc(C(=O)N3CCN(c4cccc(C)c4)C(C)C3)o2)cc1 (centres undefined)	-40%	·	1%	?	0.9%	-2%	-13%	7%
CC1=C/C(=C/N(C)c2ccccc2)C(=O)S1	-15%	?	-5%	?	-7.6%	-9%	26%	-25%
COCCNC(=O)Cn1cc2c(n1)CCCCC2	-1%	·	·	-1%	-2.3%	3%	-1%	12%
CCOC(=O)C1CCCN(C(=O)c2cn(CC(C)C)c(=O)c3cc(OC)c(OC)cc23)C1 (centres undefined)	-3%	3%	-10%&-10%	18%	-4.6%	3%	-12%	7%
NC(CSC12CC3CC(CC(C3)C1)C2)C(=O)O (centres undefined)	-4%	4%	0%	-5%	3.1%	5%	·	2%
Nc1ncnc2c1ncn2C1CCCC1	-1%	12%	?	-2%	1.0%	·	-14%	0%[18.4 µM]
Cc1cccc(OCC(=O)Nc2ccc(C(=O)O)cc2NC(=O)COc2cccc(C)c2)c1	3%	6%	-5%	·	·	-4%	0%	7%
COc1ccc(Br)cc1/C=N/NC(=O)CN1CCCCC1	42%	·	·	·	·	2%	5%	3%
CCN1c2ccccc2-c2nc3ccccc3n2C1c1ccncc1 (centres undefined)	-132%	12%	-5%	-3%	-3.3%	-12%	?	6%
CCn1cc(C2=NC(C)CO2)c2ccccc21 (centres undefined)	-5%	24%	?	-5%	1.0%	6%[6.58 µM]	17%	6%
O=C(c1cn(-c2ccccc2)nc1-c1ccncc1)n1nnc2ccccc21	-1%	-6%	-6%[46.1 µM]	·	·	·	?	0%
CCCC(=O)NC(C)c1nc2ccccc2n1Cc1ccccc1 (centres undefined)	·	7%[46.1 µM]	?	2%	-1.5%	·	-13%	·
CCOC(=O)Cc1c(C)nc2c(-c3ccccc3OC)c(C)nn2c1C	-2%	9%	7%[46.1 µM]	?	3.7%	-9%	0%	30%
c1ccc2c(c1)oc1c(NCCCn3ccnc3)ncnc12	?	5%	-3%	-2%	-0.5%	-4%	-6%	7%
O=[N+]([O-])c1ccc(S(=O)(=O)Nc2cccc(-c3ccc(N4CCCC4)nn3)c2)cc1	·	-4%	19%	·	·	-8%	34%[activator]	-6%
Cc1cccc(NC(=O)CNC(=O)CN2C(=O)NC3(CCCCC3C)C2=O)c1C (centres undefined)	·	?	-5%	·	·	-1%	-2%	0%
COc1ccc(NC(=O)/C(=C\c2ccc(F)cc2)NC(=O)c2ccco2)cc1	-9%	16%	-3%[46.1 µM]	·	·	1%	17%	-9%
c1ccc(-c2nnc3n2CCCC3)cc1	4%	24%	25%	2%	9.3%	3%	15%	1%
COc1ccc(CCNC(=O)CCN2C(=O)[C@@H]3Cc4ccccc4CN3C2=O)cc1	3%	?	-4%[46.1 µM]	·	·	0%	-19%	10%
CCc1ccccc1NC(=S)NCc1ccc2c(c1)OCO2	9%	4%	13%	-11%	-0.7%	17%	10%	-14%
CCCCNC(=S)N(C)/N=C/c1c(F)cccc1F	-3%	-19%	3%	-7%	-6.4%	-3%	-3%	-12%
Cc1ccc(C2=C/C(=C\c3cccnc3)C(=O)O2)cc1	-4%	18%	34%	5%	-15%	12%	2%	9%
CC(C)(C)NC(=O)CN(C(=O)CS(=O)CC(=O)Nc1ccc(F)cc1)c1cccc(F)c1 (centres undefined)	3%	·	·	·	·	0%	3%	-1%
Cc1cccc(NC(=S)/N=C(\N)Nc2nc(C)c3ccc(C)cc3n2)c1	24%	?	11µM*	?	2.5%	28%	-24%	0%
NCC(O)CN(c1ccccc1)c1ccccc1 (centres undefined)	4%	-4%	10%[46.1 µM]	·	·	1%	-10%	-5%
CC(C)(C)CN1CCN(Cc2nc(-c3ccc(F)cc3)cs2)CC1CCO (centres undefined)	11%	-11%	?	·	·	5%	?	-7%
Cc1ccc(C)c(Cn2c(C)c(CNCc3ccc(F)cc3)c(C(=O)O)c2C)c1	·	-1%[46.1 µM]	-15%[46.1 µM]	16%	-1.0%	·	6%	·
CC(C)[C@H]1CC[C@@H](C)C(C(=O)c2ccccc2)C1=O (some centres undefined)	13%	?	5%	-3%	7.2%	0%	-9%	0%
O=C(O)c1ccc2c(=O)n(-c3ccc(F)cc3)c(=S)[nH]c2c1	0%	·	·	·	·	1%	8%	1%
CCCc1nnc(NC(=O)c2ccc([N+](=O)[O-])cc2)s1	15%	?	-19%	-15%	-0.7%	15%	13%	19%
Cc1cc(C)nc(NC(=O)c2ccccc2O)n1	-44%	·	·	·	·	-7%	3%	-1%
C=CCC(CC=C)(CNC(=O)C(=O)Nc1cccc(C(F)(F)F)c1)c1ccccc1	·	21%[46.1 µM]	12%[46.1 µM]	6%	6.3%	·	-21%	·
COCc1c(CN)cnc(C)c1N	-8%	4%	-4%	-3%	-6.8%	-1%	·	-3%
Cc1ccc(S(=O)(=O)N(C)C)cc1NC(=O)CSc1nncs1	·	30%	?	·	·	2%	8%	13%
COc1ccccc1CN1CCNC(=O)C1CC(=O)N(C)Cc1nc(C)cs1 (centres undefined)	7%	9%	17%	·	·	3%	-4%	-17%
Nc1nc(Nc2cccc(Cl)c2)nc(NCc2ccco2)c1[N+](=O)[O-]	-1%	?	5.6µM*	·	·	-4%	?	9%
CC(NC(=O)/C=C/c1ccco1)c1nc2ccccc2n1Cc1c(Cl)cccc1Cl (centres undefined)	7%	-1%	-18%	8%	-3.9%	-1%	-23%	-3%
Cc1[nH]c2ccccc2c1SCCNC(=O)c1ccc(F)cc1	·	1%[46.1 µM]	?	-8%	-7.7%	·	-19%	·
CCOC(=O)CNC(=O)CSc1nnc(-c2ccccc2)n1Cc1ccco1	0%	4%	6%[46.1 µM]	-4%	0.5%	1%	-13%	8%
O=C(N/C(=C\c1cccnc1)C(=O)N1CCCCC1)c1cccc(Br)c1	5%	3%	-17%[46.1 µM]	·	·	-3%	7%	9%
Fc1ccc(CNc2nc3ccccc3n3nnnc23)cc1	5%	·	·	?	-3.9%	-9%	22%	15%
CCOC(=O)CN(C(=O)c1ccccc1)c1ccccc1C	-5%	1%	16%	6%	3.7%	-1%	-18%	4%
CCC(Cc1ccccc1)NC(=O)C1CCN(S(=O)(=O)c2c(C)noc2C)CC1 (centres undefined)	11%	?	-1%	?	4.7%	-6%	·	-1%
O=S(=O)(c1cc(Cl)cc(Cl)c1O)N1CCC2(CC1)OCCO2	-108%	?	26%	·	·	0%	17%	2%
Cc1cc(C)cc(NC(=O)CCC(=O)N2Cc3ccccc3Oc3ncccc32)c1	·	-1%[46.1 µM]	·	14%	-3.9%	·	-7%	·
COC(=O)c1ccccc1NC(=O)c1sc2nc(C)cc(C)c2c1NC(=O)c1ccccc1Cl	·	-10%[46.1 µM]	?	-1%	0.2%	·	-21%	·
Cc1nc(SCC(=O)Nc2cccnc2Cl)nc(C)c1C	·	·	-4%[46.1 µM]	·	·	2%	-9%	0%
Clc1ccc(-c2nnnn2-c2ccc(Cl)cc2)cc1	2%	3%[46.1 µM]	?	·	·	-2%	-12%	5%
Cc1cccc(C)c1NC(=O)C1CCCN1S(=O)(=O)c1ccc2c(c1)n(C)c(=O)c(=O)n2C (centres undefined)	13%	·	·	·	·	0%	-15%	11%
Cc1cccc(N2CCN(S(=O)(=O)c3ccc4c(c3)C(C)(C)C(=O)N4C)CC2)c1C	-9%	·	·	·	·	-5%	-24%	17%
Cc1cc(C)n(C(C)CNC(=O)c2ccc3c(c2)OCO3)n1 (centres undefined)	-5%	?	13%[46.1 µM]	·	·	13%	14%	2%
CC1Cc2ccccc2N1C(=O)CSc1nc2c(c(=O)n(C)c(=O)n2C)n1Cc1ccccc1 (centres undefined)	13%	?	?	25%	-2.8%	13%	-12%	-11%
c1ccc2c(Cn3nnc4ccccc43)cccc2c1	-107%	9%	-8%	-4%	-7.7%	2%	-21%	?
CCOc1ccc(C(=O)CCC(=O)Nc2ccncc2)cc1	·	-6%	6%	·	·	-6%	-25%	?
COc1cc(C(=O)NCC(=O)NNC(=O)CN(C)S(=O)(=O)c2ccc(Cl)cc2)cc(OC)c1OC	·	-4%	-8%[46.1 µM]	·	·	-2%	14%	1%
O=S(=O)(c1ccc(-c2cc(C(F)(F)F)on2)s1)N1CCN(c2cccc(Cl)c2)CC1	·	21%[46.1 µM]	·	15%	5.4%	·	-16%	·
CSc1n[nH]c(/N=C/c2oc(O)c3ccccc23)n1	-2%	-13%	7%[46.1 µM]	·	·	1%	12%	-20%

# Further records follow:
compound	NS1 inh	LASV entry inh	Marburg entry inh	Cruzain noTriton	Cruzain inh Det	SARS PLpro yeast	2A StopGo	RE007 growth inh
O=C(Nc1ccc(Cc2ccc(NC(=O)C3CC3)cc2)cc1)C1CC1	·	?	?	·	·	1%	2%	6%
O=C(Nc1cc(C(F)(F)F)cc(C(F)(F)F)c1)Nc1cnn(-c2ccc([N+](=O)[O-])cc2)c1C(F)(F)F	1%	-15%[46.1 µM]	?	·	·	0%	-48%	-4%
COC(=O)c1ccc(CN(C(=O)N2CCN(C)CC2)S(=O)(=O)c2ccc(C)cc2)cc1	·	5%	22%	·	·	0%	1%	-10%
CN(C)c1ccc(/C=N/NC(=O)CCc2nc3ccccc3[nH]2)cc1	-7%	·	·	·	·	0%	17%	2%
